# Screening results deposited in PubChem by National Center for Advancing Translational Sciences (NCATS).
# gsp antagonist = gsp mutant antagonism. Potency, µM (highest dose often 76.9 µM), inactives show at the highest dose activity change, negative = inhibition, usual class: inhibitors. 340,000 compounds, 0.4% hits. gsp-mutant cells, cAMP HTRF, 30 min; control for the full effect not named in the record. AID 624288; active = falling curve of any shape with a large fitted effect; inconclusive = falling curve, mostly with a smaller effect; inactive = flat or rising curve; cell line not stated here;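 further: intracellular cAMP measured with PDE inhibitor Ro 20-1724 present during compound exposure; potency means the concentration at half of the fitted maximal effect; on the % scale 0 is the no-effect control and ±100 the full control effect; nearly all actives have a fitted effect of over 65% in size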
#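 Measurement of cellular cAMP by homogeneous time-resolved fluorescence following a 30 min compound exposure at 37C. The PDE inhibitor […] was present throughout; the assay buffer was DPBS with 0.05% BSA and 0.005% Tween 20.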
# Sfp inh = inhibitors of Bacillus subtilis Sfp phosphopantetheinyl transferase. Biochemical Sfp PPTase activity, qHTS. 310,000 compounds, 3.5% hits. Potency, µM, for the others: max response, negative = inhibition, hits mostly inhibitors. Q9F4F7; active means well fitted inhibition curve with a large enough effect; inconclusive means small, poorly fitted or top-dose-only effect, or another doubt; inactive means no such curve, though single readings can be large or run the other way;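 further: the enzyme is Sfp with the accession as filed and its product quenches rhodamine fluorescence; potency means the concentration at half of the fitted maximal effect; 0% = enzyme reaction without inhibitor and -100% = no enzyme wells; top concentration of the series not given in the record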
#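 Reaction rates are the 30-min fluorescence difference (ex 525, em 598 nm) in wells containing 15 nM Sfp, 5 uM rhodamine-CoA and 12.5 uM BHQ-2-YbbR at pH 7.6 with 10 mM MgCl2.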
# gsp ag = activates gsp, the McCune-Albright syndrome mutation. Potency, µM (highest dose often 76.9 µM), inactives show at the top dose activation (cAMP increase), most hits filed as activators. gsp mutant cells, cAMP HTRF, 30 min; control for the full effect not named in the record. 340,000 compounds, 0.13% hits; active = well fitted activation curve with a large enough effect; inconclusive = small, poorly fitted or top-dose-only effect, or another doubt; inactive = no such curve, though single readings can be large or run the other way; cell line not stated here;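 further: phosphodiesterase inhibitor Ro 20-1724 added with compounds to block cAMP breakdown; potency means the concentration at half of the fitted maximal effect; nearly all actives have a fitted effect of over 60% in size; about a fifth of the inactives were tested at one dose only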
#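 Cells stably selected in G418 were plated at 2000/well, grown 16-24 hr, then given compounds in DMSO with the PDE inhibitor […] (300 uM solution added) for 30 min at 37C; cAMP was read by HTRF.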
# TRPML1 inh = blocks the human TRPML1 channel; Q9GZU1; TRPML1-inducible cells, Ca2+ dye fluorescence, FDSS; active compounds read low; inhibition of EC80 agonist-evoked calcium signal; activity change, negative = inhibition, % (test concentration not listed); 390,000 compounds, 0.02% hits; AID 624415; in the data active means activity change below about -50%; inconclusive means about -30% to -50%; inactive means above about -30%;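 further: stimulus is agonist 54-4 at its EC80 concentration; on the % scale 0 is the no-effect control and ±100 the full control effect; compound concentration not given in the record; the text of the record puts the active cut at -80%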
#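 Calcium fluorescence in TRPML1-DL cells induced overnight with Tet: a 110 s read after compound pin addition, then a 110 s antagonist read after challenge with 54-4 at 4 uM final (EC80).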
# ClpP mod = qHTS Assay for Activators of ClpP; ATP-dependent Clp protease proteolytic subunit (Bacillus subtilis (strain 168)), P80244; purified B. subtilis ClpP, FRET peptide cleavage, 20 min; Potency, µM (titrated, usually from 57.5 µM), for inactives: at the highest dose activity change, negative = active; 340,000 compounds, 1.9% hits; active = well fitted falling curve with a large enough effect; inconclusive = small, poorly fitted or top-dose-only effect; inactive = no such curve, though single readings can be large or run the other way; further: potency means the concentration at half of the fitted maximal effect; the source files actives as falling curves though it sought activators and does not explain the sign; nearly all actives have a fitted effect of over 65% in size; many hits overshoot -100%
# Target sequence (P80244 whole entry, looked up): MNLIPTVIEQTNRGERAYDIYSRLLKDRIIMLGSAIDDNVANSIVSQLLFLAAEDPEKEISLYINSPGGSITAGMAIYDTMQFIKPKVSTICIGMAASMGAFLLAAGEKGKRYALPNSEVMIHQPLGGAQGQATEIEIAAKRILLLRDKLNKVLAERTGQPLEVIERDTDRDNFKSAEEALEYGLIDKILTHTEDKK
#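 Purified B. subtilis ClpP, 10 microg/mL final in Tris/HCl pH8 with KCl, BSA, glycerol and Tween-20, cleaved an Abz/nitrotyrosine-quenched decapeptide. Fluorescence (ex 320, em 430) was read at 0 and 20 min at room temperature. Delta was normalized to 5.8 microM ADEP and DMSO/no-enzyme controls.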
# TRPV1 PAM = potentiators of human vanilloid receptor 1 (TRPV1); potentiation, % at 8.33 µM; Q8NER1; TRPV1-expressing cells, Fluo-8 calcium influx, capsaicin EC20 potentiation; host cell line not named in the record; control for the full effect not named in the record; AID 540277; 320,000 compounds, 0.02% hits; active means potentiation above 80%; inconclusive means 30% to 80%; inactive means below 30%; further: 0% is about no effect
# Target sequence (Q8NER1 whole entry, looked up): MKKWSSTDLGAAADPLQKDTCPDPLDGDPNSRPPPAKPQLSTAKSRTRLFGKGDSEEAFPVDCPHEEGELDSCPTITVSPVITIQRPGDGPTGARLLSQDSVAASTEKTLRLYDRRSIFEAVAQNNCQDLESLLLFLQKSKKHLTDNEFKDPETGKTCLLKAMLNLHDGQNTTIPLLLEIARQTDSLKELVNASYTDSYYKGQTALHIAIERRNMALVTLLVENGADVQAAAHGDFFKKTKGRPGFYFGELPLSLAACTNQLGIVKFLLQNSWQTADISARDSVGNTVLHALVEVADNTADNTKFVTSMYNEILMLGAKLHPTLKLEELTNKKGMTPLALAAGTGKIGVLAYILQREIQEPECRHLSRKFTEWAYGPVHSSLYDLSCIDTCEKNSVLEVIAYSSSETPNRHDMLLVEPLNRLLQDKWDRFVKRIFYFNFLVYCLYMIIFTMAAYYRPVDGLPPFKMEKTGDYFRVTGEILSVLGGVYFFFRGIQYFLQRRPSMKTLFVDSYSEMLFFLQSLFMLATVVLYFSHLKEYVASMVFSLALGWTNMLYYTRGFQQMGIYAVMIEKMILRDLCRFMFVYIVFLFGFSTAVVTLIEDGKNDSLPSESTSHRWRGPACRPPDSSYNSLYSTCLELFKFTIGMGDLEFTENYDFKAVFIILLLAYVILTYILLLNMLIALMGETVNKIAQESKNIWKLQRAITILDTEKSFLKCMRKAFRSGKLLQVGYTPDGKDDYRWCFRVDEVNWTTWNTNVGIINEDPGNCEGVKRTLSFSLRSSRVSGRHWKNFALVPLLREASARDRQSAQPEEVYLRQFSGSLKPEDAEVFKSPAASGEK
#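 TRPV1-expressing cells were cultured overnight at 35.5C and loaded with Fluo-8 calcium dye for 40 to 90 min at room temperature. After a 10 s baseline, compound was added and calcium influx was read kinetically for 3 min (ex 480/em 520 nm).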
# Menin MLL FP FL = menin-MLL binding inhibition, fluorescein peptide | 290,000 tested, under 10 active | FP activity change, % at 61.4 µM | Fluorescence polarization, fluorescein-MLL peptide displacement from menin; inconclusive = falling polarisation curve, or a change in total fluorescence; inactive = total fluorescence flat and polarisation flat or rising; no compound was filed as active; the % refers to the polarisation; negative = inhibition;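 further: % of control where 0% means no effect; inhibitors lower the polarisation; unlabelled MLL peptide was the positive control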
# * marks the source's active call; other numbers are inactive results; ? = inconclusive; nt = not tested or not shown; [ ] = remark or other dose.
SMILES	TRPV1 PAM	TRPML1 inh	gsp ag	Menin MLL FP FL	ClpP mod	Sfp inh	gsp antagonist
CC1=CC(C)(C)C(C(=O)O)C(C(=O)O)C1 (stereo not drawn)	22	5	-33%[inhibitor]	-0.4	-1.1%	-10%	6%
COc1ccc(C(=O)Nc2cc3c(cc2C#N)OCO3)cc1S(=O)(=O)N1CCN(C)CC1	26	10	-15%	2.1	-1.5%	13%	-8%
COC(=O)c1ccccc1NC(=O)c1ccc(COc2ccc(C)c(C)c2)o1	-7	11	4%	1.0	?	-1%	-5%
COc1cccc(CN(Cc2cccnc2)S(=O)(=O)c2ccc(-n3cnnn3)c(C)c2)c1OC	-14	4	-41%[inhibitor]	6.5	0.4%	-10%	-19%
COc1ccc(C(=O)NC2CCCCCC2)cc1S(=O)(=O)Nc1ccc(Br)cc1	-4	31	-51%[inhibitor]	-1.0	4.7%	9%	-11%
CCOC(=O)Cc1csc(NC(=O)Cc2ccc(Br)cc2)n1	11	-2	?	0.7	nt	1%	-3%
O=C(O)c1ccc(NCc2cccnc2)c([N+](=O)[O-])c1	?	19	-24%	-0.6	0.5%	17%	4%
Cc1ccc(OCCSc2nnc(-c3ccncc3)n2C)cc1	8	4	-6%	0.6	1.3%	10%	2%
Cc1onc(-c2c(Cl)cccc2Cl)c1C(=O)N1CCCCC1	-7	0	?	-1.5	nt	1%	-3%
Cc1nnnn1CC(=O)Nc1cccc([N+](=O)[O-])c1	-3	3	-6%[15.4 µM]	-1.4	nt	14%	14%
CC1(C)CC(=O)C=C(NCc2cccc(C(F)(F)F)c2)C1	0	-1	5%[15.4 µM]	4.0	nt	10%	-5%
CCc1cc2c3c(c(=O)oc2cc1OCC(=O)OC)CCCC3	-24	nt	7%	-1.9	3.9%	-4%	?
COc1cc(OC)c(C(=O)Nc2cc(Cl)ccc2-n2cncn2)cc1OC	-7	-2	16%[15.4 µM]	nt	nt	nt	8%
Cc1ccc(CNC(=O)N[C@@H](Cc2ccccc2)C(=O)O)cc1	-3	2	-28%	0.3	0.8%	-4%	12%
Fc1cccc(-c2oncc2-c2nnnn2-c2ccc(Cl)cc2)c1	10	2	2%	-0.9	0.5%	18%	?
Cc1ccc(CN2CC(C(=O)NC(c3nc4ccccc4[nH]3)C(C)C)CC2=O)cc1 (stereo not drawn)	14	-3	0%	nt	-3.4%	nt	8%
Nc1c(-c2ccccc2)nc(Cl)nc1-c1ccccc1	13	4	-3%	3.6	32µM*	-3%	3%
O=C(COC(=O)c1ccc(Br)o1)Nc1nc2c(F)c(F)c(F)cc2s1	0	-15	10%	13	-1.7%	2%	10%
Cn1c(CC(=O)Nc2ccc(F)cc2)nnc1SCC(=O)Nc1nncs1	6	41	6%	?	nt	-2%	8%
O=C(N/N=C/C1C(c2ccccc2)C1(Cl)Cl)c1cccc(Cl)c1 (stereo not drawn)	-3	-1	-10%	-0.9	1.0%	10%	-7%
O=C(Nc1nnc(CSCc2ccc(F)cc2)s1)c1ccc([N+](=O)[O-])cc1	-5	-10	6%[15.4 µM]	1.7	0.7%	?	-19%
Cc1cc(SCC(=O)NC2CCCC2)nc2ccccc12	-12	0	?	-0.6	nt	4%	7%
CCC(=O)Nc1c2c(nn1-c1ccc(OC)cc1)CSC2	7	-19	7%	1.8	1.6%	8%	-2%
COC(=O)c1cn(C)c2ccc(S(=O)(=O)N3CCCC3)cc2c1=O	28	-2	?	-1.9	-1.0%	-24%	1%
CCN1CCN(C(=O)CN(CC)S(=O)(=O)c2ccc3ccccc3c2)CC1	-5	-16	8%	2.3	2.9%	14%	-14%
O=S(=O)(c1cccs1)N1CCN(CCOc2ccc(Cl)cc2)CC1	11	2	-32%	nt	-0.6%	nt	-3%
CC1=NN(c2ccc(C)cc2)C(=O)/C1=C\c1ccc(Br)s1	16	-4	5%	-1.0	-0.2%	-7%	4%
CN1/C(=C/C(=O)COC(=O)CN2C(=O)C3CC=CCC3C2=O)C(C)(C)c2ccccc21 (stereo not drawn)	nt	24	0%	nt	nt	nt	-10%
COc1cccc(Nc2nc3ccccc3n3nnnc23)c1	-1	-4	28%	10	23%	1%	-6%
C/C(=N\Nc1cc(Cl)nc(C)n1)c1ccccc1	2	-6	6%	0.8	-0.5%	-7%	-11%

# 7 of the entries above in order of their number in gsp antagonist, largest number first:
structure | TRPML1 inh | gsp ag | Menin MLL FP FL | Sfp inh | gsp antagonist
O=C(O)c1ccc(NCc2cccnc2)c([N+](=O)[O-])c1 | 19 | -24% | -0.6 | 17% | 4%
CCOC(=O)Cc1csc(NC(=O)Cc2ccc(Br)cc2)n1 | -2 | ? | 0.7 | 1% | -3%
COC(=O)c1ccccc1NC(=O)c1ccc(COc2ccc(C)c(C)c2)o1 | 11 | 4% | 1.0 | -1% | -5%
COc1cccc(Nc2nc3ccccc3n3nnnc23)c1 | -4 | 28% | 10 | 1% | -6%
COc1ccc(C(=O)Nc2cc3c(cc2C#N)OCO3)cc1S(=O)(=O)N1CCN(C)CC1 | 10 | -15% | 2.1 | 13% | -8%
CCN1CCN(C(=O)CN(CC)S(=O)(=O)c2ccc3ccccc3c2)CC1 | -16 | 8% | 2.3 | 14% | -14%
O=C(Nc1nnc(CSCc2ccc(F)cc2)s1)c1ccc([N+](=O)[O-])cc1 | -10 | 6%[15.4 µM] | 1.7 | ? | -19%

# Next section.
SMILES	TRPV1 PAM	TRPML1 inh	gsp ag	Menin MLL FP FL	ClpP mod	Sfp inh	gsp antagonist
Cn1c(=O)[nH]c(=O)c2cc(C(=O)c3cc(F)ccc3O)cnc21	5	16	6%[15.4 µM]	6.5	-0.1%	24%	-3%
CC(=O)N1CCOCCOCCN(C(C)=O)CCOCCOCC1	0	21	-6%[15.4 µM]	4.8	nt	22%	11%
Cc1cccc(NC(=S)N(CCN(C)C)Cc2cc3cccc(C)c3[nH]c2=O)c1	-9	11	-4%	0.7	-6.0%	18%	?
Cc1ccc(N/C=C/C(=O)C(C)(C)C)c(O)c1	4	-6	-1%	-1.0	-6.3%	89µM*	-12%
O=C(/C=C/c1cccnc1)/C=C/c1cccnc1	4	nt	-1%	0.4	-0.3%	14µM*	?
COc1ccc(S(=O)(=O)N(C)CC(=O)NCc2ccccn2)cc1	19	16	-14%	-0.2	nt	2%	6%
COc1cc(/C=C/C(=O)OCC(=O)c2c(N)n(C)c(=O)n(C)c2=O)ccc1OC(F)F	12	-9	-2%[15.4 µM]	0.0	nt	25%	-15%
CCN(CC)c1nc2ccccc2nc1C(C#N)C(=O)NCCCOC (stereo not drawn)	-12	12	5%	17	-7.8%	8%	0%[15.4 µM]
CCCCN(Cc1ccco1)C(=O)C1CCCN(c2ncnc3c2nc2n3CCCCC2)C1 (stereo not drawn)	14	18	31%	nt	2.5%	-5%	-31%
O=C1CCc2cc(S(=O)(=O)NCCc3ccc(Cl)cc3)cc3c2N1CC3	1	-6	-34%	nt	-1.8%	nt	-3%
COc1ccc(C(=S)Nc2ccccc2)cc1	-22	3	-24%	4.3	-2.5%	17%	5%
CCOc1ccccc1C(=O)Nc1cc(C(=O)NCC(C)C)ccc1Cl	4	nt	nt	-3.9	nt	7%	nt
COC(=O)C1CCN(C2=C(NS(=O)(=O)c3ccc(Cl)cc3)C(=O)c3ccccc3C2=O)CC1	-3	nt	?	-1.7	-0.1%	-15%	-36%
C=CCc1ccccc1OCC(O)CN1CCN(c2ccccc2F)CC1 (stereo not drawn)	5	-16	12%	1.7	1.2%	7%	-2%
Cc1ccc(-n2c(C)cc(C)c(C#N)c2=O)cc1Cl	-14	28	-35%[inhibitor]	3.9	?	24%	5%
Cc1ccc(-n2nc(C)c3c2NC2=C(C(=O)CC(C)(C)C2)C3c2ccccc2OCC(=O)O)cc1 (stereo not drawn)	4	5	0%[15.4 µM]	0.7	nt	1%	-54%
Cc1cc(=O)[nH]c(-n2nc(C)cc2C)n1	-29	-1	2%	0.9	-0.6%	-94%	-3%
CC(=O)COc1ncn(-c2ccccc2)n1	2	27	18%	0.5	48%	-8%	1%
COCCNC(=O)CCCn1c(=O)c2cc(OC)c(OC)cc2n(CC(=O)c2cccc(OC)c2)c1=O	-4	-23	42%	0.0	-2.9%	7%	-13%
O=C(c1cccnc1)N1C2C=CC(C2)C1(C(F)(F)F)C(F)(F)F (stereo not drawn)	?	3	-2%	0.2	-6.5%	5%	11%
CCNc1ccc(C2(O)C(=O)c3ccccc3C2=O)cc1	3	-14	-8%[15.4 µM]	8.1	nt	-5%	11%
O=C(CSc1nc2ccccc2n1CC(=O)N1CCCC1)Nc1ccc2c(c1)OCO2	-1	37	-14%	-0.1	1.2%	-1%	4%

# 4 compounds drawn at random from those above:
SMILES	TRPV1 PAM	TRPML1 inh	gsp ag	Menin MLL FP FL	ClpP mod	Sfp inh	gsp antagonist
COc1ccc(C(=S)Nc2ccccc2)cc1	-22	3	-24%	4.3	-2.5%	17%	5%
CCOc1ccccc1C(=O)Nc1cc(C(=O)NCC(C)C)ccc1Cl	4	nt	nt	-3.9	nt	7%	nt
Cc1ccc(N/C=C/C(=O)C(C)(C)C)c(O)c1	4	-6	-1%	-1.0	-6.3%	89µM*	-12%
Cn1c(=O)[nH]c(=O)c2cc(C(=O)c3cc(F)ccc3O)cnc21	5	16	6%[15.4 µM]	6.5	-0.1%	24%	-3%

# Reformatted: results already given.
# The line under a structure holds: TRPV1 PAM	TRPML1 inh	gsp ag	Menin MLL FP FL	ClpP mod	Sfp inh	gsp antagonist
COc1ccc(S(=O)(=O)N(C)CC(=O)NCc2ccccn2)cc1
 : 19	16	-14%	-0.2	nt	2%	6%
COc1cc(/C=C/C(=O)OCC(=O)c2c(N)n(C)c(=O)n(C)c2=O)ccc1OC(F)F
 : 12	-9	-2%[15.4 µM]	0.0	nt	25%	-15%
